# rRNA inh HTS: reduced GFP signal of wild-type E. coli, primary screen, bacterial rRNA inhibitor project, GFP/RFP fluorescence, OD600, single point; E. coli WT GFP vs humanized-ribosome RFP mutants, 24 h; active compounds read low; DMSO median 0, no signal -100; GFP signal change (wild-type ribosome), % (concentration not given with the values); 350,000 compounds, 1.6% hits; AID 720706, 2013;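 active means significant combined selectivity score with lowered wild-type GFP, culture density cut under 30%, mutant RFP and density less affected; inactive means any of these conditions unmet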; further: one replicate is shown; some compounds called inactive have numbers as strong as hits
# rRNA inh HTS OD600: further read-out of rRNA inh HTS, marked with its call; OD600 change, %; measured here: OD600 growth;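 optical density of the mix in the first replicate; 0 = DMSO median and -100 = no signal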
# rRNA inh HTS RFP: further read-out of rRNA inh HTS, marked with its call; RFP signal change, %; measured here: RFP humanized mutant strains;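 first replicate; 0 = DMSO median and -100 = no signal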
# The depositor's hits bear a star.
rRNA inh HTS,rRNA inh HTS OD600,rRNA inh HTS RFP,molecule
4,10,-2.6,COCC#Cc1ccc([C@H]2[C@@H](CO)N3C(=O)CN(C(=O)C4CC4)C[C@H]23)cc1
2,5,-0.1,CCC(=O)N[C@@H]1CC[C@H](CC(=O)NCC2CC2)O[C@@H]1CO
0,-2,-1.5,COC(=O)[C@H]1[C@H](CO)[C@H]2Cn3c(cccc3=O)[C@H]2N1CC1CCCC1
-1,7,-2.2,C[C@H]1CN([C@@H](C)CO)S(=O)(=O)c2ccc(-c3cccnc3)cc2O[C@H]1CN(C)C(=O)C1CC1
-3,-2,-1.1,CC(=O)NC[C@H]1[C@H](c2ccc(-c3ccccc3)cc2)[C@@H](CO)N1C(=O)C1CC1
5,-2,2.0,COc1cccc(-c2ccc([C@H]3[C@@H](CO)N4CCCCN(Cc5cncnc5)C[C@@H]34)cc2)c1
-5,-4,2.7,COc1ccc2c3c(n(C)c2c1)[C@H](CO)N(C(=O)Nc1ccc(F)cc1)CC31CN(S(=O)(=O)c2cccs2)C1
3,3,-0.8,C[C@H](CO)N1C[C@H](C)[C@@H](CN(C)CC2CC2)Oc2ccc(NC(=O)Cc3ccccc3)cc2C1=O
-3,1,-0.3,O=C(C[C@H]1CC[C@@H](NS(=O)(=O)c2ccc(F)cc2)[C@H](CO)O1)NCc1ccccc1F
2,-1,-2.7,CO[C@H]1CN(C)C(=O)c2cc(NC(=O)c3ccccc3)ccc2OC[C@H](C)N(CC2CC2)C[C@H]1C
1,1,-5.4,COc1ccc(C[C@H]2CCn3nncc3COC[C@H](CC(C)C)NC2=O)cc1
-1,0,1.1,CC(C)NC(=O)Nc1cccc2c1O[C@@H](CN(C)C)[C@@H](C)CN(C)C2=O
3,24,-3.9,O=C(C1CCOCC1)N1CC(=O)N2[C@H](CO)[C@H](c3ccc(C#CC4CC4)cc3)[C@H]2C1
4,2,-0.4,C[C@@H]1CN([C@H](C)CO)C(=O)Cc2cc(NC(=O)C3CCCCC3)ccc2O[C@@H]1CN(C)CC1CC1
-2,-4,0.1,CCC(=O)NC[C@H]1N[C@H](CO)[C@@H]1c1ccc(C2=CCCC2)cc1
-2,2,-2.0,C[C@@H]1CN([C@@H](C)CO)C(=O)c2cc(NC(=O)Nc3ccc(F)cc3)ccc2O[C@@H](C)CCCCO[C@H]1CN(C)S(=O)(=O)c1cn(C)cn1
4,4,-0.3,C[C@@H]1COCc2cn(nn2)CC[C@H](C)C(=O)N1
-7,-16,4.1,COc1ccc(NC(=O)Nc2ccc3c(c2)C(=O)N([C@H](C)CO)C[C@H](C)[C@H](CN(C)C(=O)NC2CCCCC2)O3)cc1
0,4,-0.8,O=C1CN(S(=O)(=O)c2ccccc2)C[C@H]2[C@@H](c3ccc(C#CCc4ccccc4)cc3)[C@H](CO)N12
1,0,-0.8,CC(=O)N(C)C[C@@H]1Oc2ncccc2C(=O)N(C)C[C@H]1C

# Quoted at random: 3 compounds from above
rRNA inh HTS,rRNA inh HTS OD600,rRNA inh HTS RFP,molecule
-1,7,-2.2,C[C@H]1CN([C@@H](C)CO)S(=O)(=O)c2ccc(-c3cccnc3)cc2O[C@H]1CN(C)C(=O)C1CC1
-2,2,-2.0,C[C@@H]1CN([C@@H](C)CO)C(=O)c2cc(NC(=O)Nc3ccc(F)cc3)ccc2O[C@@H](C)CCCCO[C@H]1CN(C)S(=O)(=O)c1cn(C)cn1
5,-2,2.0,COc1cccc(-c2ccc([C@H]3[C@@H](CO)N4CCCCN(Cc5cncnc5)C[C@@H]34)cc2)c1

# (listing goes on)
rRNA inh HTS,rRNA inh HTS OD600,rRNA inh HTS RFP,molecule
1,-2,-2.0,CNC[C@@H]1OCCCC[C@@H](C)Oc2ccc(NC(=O)CCCN(C)C)cc2C(=O)N([C@H](C)CO)C[C@@H]1C
-44,-53,-4.8,COc1ccc(S(=O)(=O)N2CC[C@H]3[C@H](CO)Nc4ccc(Br)cc4[C@H]32)cc1
6,-22,11,C[C@@H]1CN([C@H](C)CO)C(=O)c2cc(NS(=O)(=O)c3ccc(F)cc3)ccc2O[C@@H](C)CCCCO[C@H]1CN(C)Cc1ccc2c(c1)OCO2
3,1,0.4,O=C(NC[C@@H]1[C@@H](c2ccccc2)[C@H](CO)N1Cc1ccccn1)C1CC1
6,7,1.2,COc1ccccc1NC(=O)N1CC(=O)N2[C@H](CO)[C@H](c3ccc(C#Cc4ccccc4)cc3)[C@@H]2C1
2,4,-0.8,C[C@@H]1CN([C@@H](C)CO)C(=O)c2cc(NC(=O)CCC(F)(F)F)ccc2O[C@@H](C)CCCCO[C@@H]1CN(C)C
0,2,-1.1,CCC(=O)Nc1ccc2c(c1)C(=O)N(C)C[C@H](OC)[C@@H](C)CN(CC1CCOCC1)[C@H](C)CO2
0,-1,0.6,COCC(=O)N1CC(=O)N2[C@H](C1)[C@@H](c1ccc(-c3ccccc3)cc1)[C@@H]2CO
-1,0,-0.8,C[C@@H]1CN([C@@H](C)CO)C(=O)Cc2cc(NC(=O)C3CCCCC3)ccc2O[C@H]1CN(C)C(=O)Nc1ccc(F)cc1
-2,-4,-0.3,CN1C[C@@H]2[C@H](c3ccccc31)[C@@H](CO)N2C(=O)Nc1ccccc1
0,-2,-1.6,O=C(C[C@@H]1CC[C@H](NC(=O)CCN2CCCCC2)[C@@H](CO)O1)Nc1ccccc1
3,0,-0.8,CCNC(=O)[C@@H]1[C@@H](CO)[C@@H]2Cn3c(cccc3=O)[C@H]1N2CC1CCOCC1
0,-3,3.4,Cc1ccc(S(=O)(=O)Nc2ccc3c(c2)C(=O)N([C@@H](C)CO)C[C@H](C)[C@@H](CN(C)C(=O)c2ccccc2)OCCCC[C@H](C)O3)cc1
0,-1,0.3,O=C(C[C@H]1CC[C@H](NC(=O)c2ccncc2)[C@H](CO)O1)NCc1ccncn1
-3,-10,-1.0,CNC[C@H]1Oc2ccc(NC(=O)Nc3cccc4ccccc34)cc2CC(=O)N([C@H](C)CO)C[C@H]1C
-5,-3,0.0,O=C(C[C@H]1C=C[C@@H](NC(=O)C2CCOCC2)[C@H](CO)O1)NCc1ccccc1Cl
4,9,0.2,CNC[C@H]1Oc2ccc(NC(=O)Nc3c(C)noc3C)cc2CC(=O)N([C@H](C)CO)C[C@H]1C
-1,-2,3.5,Cc1ccc(S(=O)(=O)N(C)C[C@@H]2OCCCC[C@H](C)Oc3ccc(NC(=O)NC(C)C)cc3C(=O)N([C@@H](C)CO)C[C@@H]2C)cc1
0,-4,-0.8,C/C=C/c1ccc([C@H]2[C@@H](CN(C)C(C)=O)N(C(=O)C3CC3)[C@H]2CO)cc1
3,-10,-0.6,COc1ccc2c3c(n(C)c2c1)[C@@H](CO)N(Cc1cccc(F)c1)CC31CCN(C(=O)Cc2ccccc2)CC1
4,5,-2.3,C/C=C/c1cnc2c(c1)C(=O)N([C@@H](C)CO)C[C@H](C)[C@@H](CN(C)C(=O)C1CC1)O2
3,-4,-3.2,C[C@@H]1CCCCO[C@@H](CN(C)C(=O)Nc2cccc3ccccc23)[C@@H](C)CN([C@@H](C)CO)C(=O)c2cc(N(C)C)ccc2O1
-10,-53,32,O=C(Nc1ccc(F)cc1)N1CC(=O)N2[C@H](CO)[C@@H](c3ccc(C#CC4CC4)cc3)[C@@H]2C1
-2,-8,2.7,C[C@@H]1CN([C@H](C)CO)C(=O)c2cccc(NC(=O)c3nc4ccccc4s3)c2O[C@H]1CN(C)Cc1ccccc1
0,6,-0.8,CCS(=O)(=O)N1CC2(C1)[C@H](c1ccccc1)[C@H](CO)N2C(=O)C1CCC1
6,-5,1.6,CC(C)NC(=O)N(C)C[C@@H]1Oc2ncc(C#CC3CCCCC3)cc2C(=O)N([C@@H](C)CO)C[C@H]1C
1,9,1.0,COc1ccc2c3c(n(C)c2c1)[C@H](CO)N(C(=O)c1cccc(F)c1)CC31CCN(CC2CC2)CC1
-2,-2,-4.5,C/C=C/c1cnc2c(c1)C(=O)N([C@H](C)CO)C[C@@H](C)[C@@H](CN(C)Cc1ccccc1F)O2
4,-1,4.7,O=C(c1ccccn1)N1CC(=O)N2[C@H](CO)[C@@H](c3ccc(C#Cc4ccccc4)cc3)[C@H]2C1
3,9,2.2,CO[C@@H]1CN(C)C(=O)c2ccc(NC(=O)NC(C)C)cc2OC[C@@H](C)N(C)C[C@H]1C
0,1,0.8,CC=Cc1ccc2n(c1=O)C[C@@H]1[C@@H](CO)[C@H](C(=O)NCc3ccncn3)N(C(=O)C3CCCC3)[C@H]21 (mixture of isomers)
-4,-8,0.2,CO[C@@H](C(=O)N(C)C[C@H]1OCc2ccccc2-c2c(n(C)c3ccccc23)C(=O)N([C@@H](C)CO)C[C@H]1C)c1ccccc1
1,-1,-0.1,C[C@H](CO)N1C[C@H](C)[C@@H](CN(C)Cc2ccc(-c3ccccc3)cc2)Oc2ccc(NS(=O)(=O)c3ccc(Cl)cc3)cc2CC1=O
0,1,-1.2,COc1ccccc1C(=O)N1C[C@@H]2[C@H](c3ccccc31)[C@H](CO)N2CC1CCOCC1
2,4,0.5,CCS(=O)(=O)N1CC(=O)N2[C@@H](CO)[C@H](c3ccc(C#CC4CC4)cc3)[C@@H]2C1
6,8,5.5,O=C(Nc1ccccc1)N1CC(=O)N2[C@@H](CO)[C@H](c3ccc(C#CC4CCCCC4)cc3)[C@@H]2C1
6,12,0.4,COc1ccc2c3c([nH]c2c1)[C@@H](CO)N(Cc1ccccc1)CC31CCN(C(C)=O)CC1
2,1,-0.4,CC(C)CC#Cc1ccc([C@@H]2[C@@H](CO)N3C(=O)CN(C(=O)NC4CCCC4)C[C@H]23)cc1
1,3,0.2,CCCN1[C@@H]2Cn3c(cccc3=O)[C@H]1[C@@H](C(=O)N[C@@H](C)c1ccccc1)[C@@H]2CO
3,13,0.1,CC=Cc1ccc2n(c1=O)C[C@@H]1[C@@H](CO)[C@H](C(=O)NC3CCC3)[C@H]2N1C(=O)c1cnccn1 (mixture of isomers)
3,6,-0.8,CCCNC(=O)[C@H]1[C@H](CO)[C@H]2Cn3c(ccc(-c4ccccc4)c3=O)[C@H]2N1C(=O)C1CC1
1,3,0.3,CO[C@H]1CN(C)C(=O)c2ccc(NC(=O)c3ccccc3F)cc2OC[C@H](C)N(C)C[C@H]1C
1,-5,2.6,COc1cccc(S(=O)(=O)Nc2ccc3c(c2)OC[C@H](C)N(C(=O)Cc2cccnc2)C[C@H](C)[C@H](OC)CN(C)C3=O)c1
-1,6,-1.6,O=C(Nc1ccc(F)cc1)N1C[C@H]2[C@@H](c3ccccc31)[C@@H](CO)N2C(=O)c1ccccn1
2,-8,3.3,O=C(Nc1ccccc1)N1CC(=O)N2[C@H](C1)[C@H](c1ccc(C#CC3CCCCC3)cc1)[C@@H]2CO
4,8,-2.3,CCCNC(=O)N1[C@@H]2CN(C(=O)CC)c3ccccc3[C@@H]2[C@@H]1CO
-3,4,-1.4,Cc1noc(C)c1NC(=O)Nc1cccc2c1O[C@@H](CN(C)C(=O)Nc1ccc(F)cc1)[C@@H](C)CN([C@H](C)CO)C2=O
-4,-3,2.4,COC(=O)c1ccc(CN2CC(=O)N3[C@H](C2)[C@H](c2ccc(Br)cc2)[C@@H]3CO)cc1
-2,-1,-3.0,O=C(C[C@H]1CC[C@@H]2[C@H](COC[C@@H](O)CN2Cc2nccs2)O1)NCc1ccccc1
2,4,-2.5,C[C@@H]1CCCCO[C@@H](CN(C)Cc2ccc(C(F)(F)F)cc2)[C@@H](C)CN([C@H](C)CO)C(=O)c2cc(NS(=O)(=O)c3ccccc3)ccc2O1
-1,-1,-0.3,Cc1ccc(S(=O)(=O)Nc2ccc3c(c2)C(=O)N([C@@H](C)CO)C[C@@H](C)[C@@H](CN(C)C(=O)CCC(F)(F)F)OCCCC[C@H](C)O3)cc1
1,6,0.5,CNC[C@@H]1OCCCC[C@@H](C)Oc2ccc(NS(=O)(=O)c3ccc(Cl)cc3)cc2C(=O)N([C@@H](C)CO)C[C@H]1C
-4,1,-0.6,C[C@@H](NC(=O)C[C@@H]1C[C@@H]2c3cc(NC(=O)NC4CCCC4)ccc3O[C@@H]2[C@H](CO)O1)c1ccccc1

# Four compounds out of the list above, sorted by the value under rRNA inh HTS, largest number first:
rRNA inh HTS,rRNA inh HTS OD600,rRNA inh HTS RFP,molecule
6,12,0.4,COc1ccc2c3c([nH]c2c1)[C@@H](CO)N(Cc1ccccc1)CC31CCN(C(C)=O)CC1
1,-2,-2.0,CNC[C@@H]1OCCCC[C@@H](C)Oc2ccc(NC(=O)CCCN(C)C)cc2C(=O)N([C@H](C)CO)C[C@@H]1C
-2,-1,-3.0,O=C(C[C@H]1CC[C@@H]2[C@H](COC[C@@H](O)CN2Cc2nccs2)O1)NCc1ccccc1
-4,-8,0.2,CO[C@@H](C(=O)N(C)C[C@H]1OCc2ccccc2-c2c(n(C)c3ccccc23)C(=O)N([C@@H](C)CO)C[C@H]1C)c1ccccc1

# This is a subset; count on the stated rates, not on these rows.
